Env fusion inh: inhibitors of HIV-1 Env-driven cell-cell fusion, primary screen, HeLa-JRFL effector, CEM21 target cells, luciferase. inhibition, % at 12.3 µM. hit rate 1.1% among 360,000. AID 651610, 2012;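 active = mean replicate inhibition score of at least 50 and every replicate individually at or above 50; inconclusive = only one of the two criteria met; inactive = mean below 50 and not all replicates reaching 50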;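 also: 0% = plate neutral controls and 100% = maraviroc near 300 nM; one replicate is shown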
eIF4H inh: human eIF4H binding inhibitors, primary screen, translation initiation inhibitor project, biochemical, uHTS, fluorescence polarization; inhibition, % at 35 µM; eIF4H fluorescence polarization binding assay; hit rate 0.94% among 290,000; AID 2012, 2009;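 active = 50% or more with normal probe brightness, or confirmed in later tests; inconclusive = above 50% with abnormal brightness, or retests that disagree; inactive = below 50% or failed in later tests; about a fifth of its hits are not listed in these tables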;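 also: calls also rest on retests at 20 µM and on dose response follow-up; 0% = protein and probe with vehicle and 100% = probe without protein; strong numbers were not always called active; many hits fall short of the cut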
PABP FP inh: PABP poly(A) RNA binding inhibitors, primary screen, biochemical, fluorescence polarization, uHTS; Polyadenylate-binding protein 1 (Homo sapiens), P11940; inhibition, % at 35 µM; hit rate 1% among 290,000;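 active = 50% or more with normal probe brightness, or confirmed in later tests; inconclusive = above 50% with abnormal brightness, or retests that disagree; inactive = below 50% or failed in later tests; about a fifth of its hits are not listed in these tables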;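 also: calls also rest on retests at 20 µM and on dose response follow-up; controls were probe without protein and protein plus probe with vehicle; some compounds called inactive have numbers as strong as hits; many hits fall short of the cut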
CSC inhib: cancer stem cell viability inhibitors, primary screen, luminescence; cancer stem cell-like cells viability; hit rate 1.1% among 300,000; inhibition, % at 7.5 µM;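 active = mean at 75% or more and at least half the replicates too; inconclusive = mean and replicates disagree; tested in HMLE shEcad cells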;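 also: 0% = median of negative and 100% = median of positive control wells; the first replicate is given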
Rce1 inh: yeast Rce1p protease inhibitors, primary screen, biochemical, fluorescence, cell-free homogeneous | yeast membranes, quenched prenylated peptide cleavage fluorescence | CAAX prenyl protease 2 (Saccharomyces cerevisiae (strain ATCC 204508 / S288c)), Q03530 | AID 2563, 2010 | hit rate 0.27% among 290,000 | calls only;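 active = fall in fluorescence gain of 50% or more versus controls, with final raw signal at or below 3038400; inconclusive = same 50% fall but final raw signal above 3038400; inactive = fall in fluorescence gain under 50%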;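 also: plate controls were neutral control wells for no effect and wells lacking membranes for full effect; tested at 10 µM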
Target sequence (Q03530 whole entry, looked up): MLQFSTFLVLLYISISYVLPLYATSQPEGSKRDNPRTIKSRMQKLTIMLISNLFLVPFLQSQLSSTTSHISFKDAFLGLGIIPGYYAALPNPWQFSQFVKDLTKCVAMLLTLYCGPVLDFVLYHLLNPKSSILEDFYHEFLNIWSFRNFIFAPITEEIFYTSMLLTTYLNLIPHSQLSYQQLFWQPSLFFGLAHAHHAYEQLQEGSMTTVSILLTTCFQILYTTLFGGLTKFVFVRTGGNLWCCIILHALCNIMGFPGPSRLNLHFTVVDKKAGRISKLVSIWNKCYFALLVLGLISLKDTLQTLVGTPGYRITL
MT1-MMP act inh: blockers of MT1-MMP proenzyme processing, primary screen, HT1080 RFP-PRO-GFP cells, GFP/RFP fluorescence | Matrix metalloproteinase-14 (Homo sapiens), P50281 | GFP/RFP ratio fluorescence, overnight; percent of plate control window, DMSO zero | GFP/RFP ratio change, % at 20 µM | hit rate 0.061% among 360,000;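 active = GFP/RFP ratio change of at least 30% with cell ATP level not reduced by more than half and red fluorescence within 50% of control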; also: strong numbers were not always called active
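Assay system: HT1080 RFP-PRO-GFP cells. Benchmarks: DMSO vehicle wells and RFP-L50D-GFP reporter cell wells. Times: overnight cell settling, then overnight compound exposure, 37 °C, 5% CO2. Compound: 20 µM single dose, 1% DMSO. Read-out basis: GFP/RFP fluorescence ratio.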
Yeast UUG start: modulators of yeast start codon fidelity, primary screen, whole organism, S. cerevisiae, single point, plate reader | S. cerevisiae UUG-firefly luciferase reporter, luminescence/redox ratio | activity score, % at 18.7 µM | hit rate 0.13% among 350,000 | AID 602363, 2012;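 active = replicate mean at a twofold rise or more, about +100% in these data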;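 also: firefly luciferase made from a UUG start codon reports start codon fidelity; reporter light over untreated wells divided by growth signal over untreated wells; some hits fall short of that in this replicate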
eIF4H inh retest: further read-out of eIF4H inh, marked with its call; inhibition, %; compound at 20 µM; confirmation average;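 mean of two retest wells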
PABP FP inh retest: also measured in PABP FP inh; calls as there; inhibition, %; compound at 20 µM; confirmation repeats;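 mean of two retest wells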
MT1-MMP act inh RFP: further read-out of MT1-MMP act inh, marked with its call; RFP signal change, %; measured here: RFP expression control read;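 0 = vehicle wells; hits needed this value within 50% of zero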
* hit, by the source's call; i = inactive; ? = inconclusive; nt = no result given. An excerpt; the hit share may differ from the screen's.

SMILES | Env fusion inh | eIF4H inh | PABP FP inh | CSC inhib | Rce1 inh | MT1-MMP act inh | MT1-MMP act inh RFP | Yeast UUG start | others
COc1ccc(C(=O)N2CCCCC2c2cc(C(=O)NCc3ccc(F)cc3)no2)cc1 (stereo not given) | 3 | nt | nt | nt | nt | 4 | -3 | -12
CC1(C)CC(=O)C(C(C2=C(O)CC(C)(C)CC2=O)c2cccc(O)c2)C(=O)C1 (stereo not given) | -21 | 11 | 15 | nt | nt | -4 | 0 | 11
COC(=O)c1ccccc1NC(=O)c1ccc2c(c1)OCCO2 | nt | -2 | -5 | 21 | i | -5 | 4 | -1
Cc1cc(C)nc(SCC(=O)N/N=C/C=C/c2ccccc2)n1 | -8 | 0 | 1 | nt | i | -2 | 1 | nt
C[N+](C)(C)CCCCCCCCCC[N+](C)(C)C | -9 | -6 | -9 | -14 | i | -2 | 2 | -7
COc1ccc(CNS(=O)(=O)c2ccc3c(c2)N(C(C)=O)CCO3)cc1 | 0 | -12 | 15 | -3 | i | 0 | 0 | -10
CCN(CCC#N)c1ccc(N2C(=O)CCCC2=O)cc1[N+](=O)[O-] | 18 | 0 | 8 | 4 | i | -1 | -3 | -11
Cc1c(NC(=O)C23CC4CC(CC(Br)(C4)C2)C3)c(=O)n(-c2ccccc2)n1C | -6 | -9 | 7 | -6 | i | 2 | 2 | -13
O=C(Nc1ccc(Cl)cc1)Nc1ccc(C(=O)N2CCOCC2)cc1 | -2 | -2 | 3 | -8 | i | 4 | -4 | -7
COC(=O)c1[nH]c2cc(OC)ccc2c1NC(=O)c1nonc1C | 10 | 10 | 3 | 23 | i | 3 | 6 | -1
C=CCn1c(SCC(=O)NC(C)(C)C)nnc1-c1ccccc1O | -17 | -9 | -4 | -8 | i | 1 | -1 | -10
OCc1nc2ccccc2n1C/C=C/c1ccccc1 | -25 | -6 | -11 | -13 | i | 0 | -1 | nt
COc1ccc(Cl)cc1NC(=O)Nc1cn(C)nc1C | 11 | 5 | -7 | 7 | i | 4 | -2 | -9
CCCN(C(=O)COC(=O)C12CCC(=O)N1c1ccccc1S2)c1c(N)n(Cc2ccccc2)c(=O)[nH]c1=O (stereo not given) | 10 | -8 | 10 | -11 | i | 0 | 12 | 4
COc1ccc(-c2cc(C(=O)Nc3ccc(C(N)=O)cc3)c3ccccc3n2)cc1 | -76 | 3 | 6 | 10 | i | 0 | -1 | -23
NC(=O)CSc1ccc(F)cc1 | -102 | -3 | 5 | -14 | i | 3 | 7 | 2
CN1CCN(C(=O)/C=C/c2c(F)cccc2Cl)CC1 | 2 | 2 | -2 | -24 | i | 0 | 3 | -4
CCCNC(=O)c1cn(CC)c2cc(N3CCN(C)CC3)c(F)cc2c1=O | nt | -2 | -3 | 1 | i | 2 | 8 | -15
CC(=O)NCCC(=O)N1CCCC(C(=O)c2ccc3c4c(cccc24)CC3)C1 (stereo not given) | 3 | -3 | 6 | -24 | i | 5 | -4 | -10
Cc1cc(C)n2nc(C(=O)OCC(=O)Nc3ccc(F)cc3F)nc2n1 | -9 | nt | nt | -1 | i | -4 | 2 | -12
Cc1cccc(/C(N)=N/OC(=O)N2CCOCC2)c1 | nt | 3 | -2 | 9 | i | -5 | -12 | -7
O=C(COC(=O)CCNS(=O)(=O)c1ccc(Cl)cc1)NCc1ccccc1 | -15 | nt | nt | nt | nt | 3 | 10 | -5
CCCOc1ccc(C(=O)N2CCN(c3ccc(N)cc3Cl)CC2)cc1 | 12 | -3 | -8 | 76* | i | -9 | 1 | -6
CC(=O)c1cccc(N2C(=NC(=O)CCc3ccccc3)SC3CS(=O)(=O)CC32)c1 (stereo not given) | 22 | -7 | 6 | -8 | i | 3 | 1 | -17
CC1CCCCC1NC(=O)CCCn1c(=S)[nH]c2ccccc2c1=O (stereo not given) | 7 | -4 | -8 | -1 | i | -4 | -4 | nt

The final 2 compounds of the part above are carried over, then new ones follow:
SMILES | Env fusion inh | eIF4H inh | PABP FP inh | CSC inhib | Rce1 inh | MT1-MMP act inh | MT1-MMP act inh RFP | Yeast UUG start | others
CC(=O)c1cccc(N2C(=NC(=O)CCc3ccccc3)SC3CS(=O)(=O)CC32)c1 (stereo not given) | 22 | -7 | 6 | -8 | i | 3 | 1 | -17
CC1CCCCC1NC(=O)CCCn1c(=S)[nH]c2ccccc2c1=O (stereo not given) | 7 | -4 | -8 | -1 | i | -4 | -4 | nt
COc1cc(-c2cc(C(=O)NN3CCN(C)CC3)c3ccccc3n2)cc(OC)c1OC | -19 | -5 | 3 | 2 | i | nt | nt | nt
O=C(Nc1ccccc1N1CCN(C(=O)c2ccccc2)CC1)c1ccc(Br)o1 | 69* | 4 | 0 | 10 | i | -4 | -5 | -17
CC(=O)Nc1ccc(-c2ccnc3c2CC(C)(C(=O)NCC2CC2)O3)cc1 (stereo not given) | 22 | nt | nt | nt | nt | -1 | 5 | -19
Cc1ccc(O)c(NC(=S)NC(=O)COc2ccc(Br)cc2)c1 | -3 | 9 | -7 | -10 | i | 3 | 4 | nt
COc1ccc(NCc2ccc([N+](=O)[O-])s2)cc1 | -12 | 1 | -4 | 17 | i | 4 | 3 | nt
CC/C(=N\NC(N)=O)c1ccc(OC)c(OC)c1 | -8 | -2 | -8 | -8 | i | 3 | 2 | -17
O=C(CN1C(=O)NC2(CCCC2)C1=O)OCCOc1ccc(Cl)cc1Cl | 9 | nt | nt | -2 | i | 4 | -3 | -5
CCOc1ccc(S(=O)(=O)N(CC(=O)N2CCc3ccccc32)Cc2ccco2)cc1 | -17 | -8 | 4 | 3 | i | -7 | -11 | 4
Cc1ccc(S(=O)(=O)N2CCC(=O)N(CCOCc3ccc(F)cc3)CC2)cc1 | 26 | -1 | 6 | 3 | i | 7 | -4 | 12
O=C(Oc1ccc2c3c(c(=O)oc2c1)CCC3)c1ccccc1[N+](=O)[O-] | nt | 5 | -2 | -2 | i | nt | nt | nt
CCC/C=C/c1ccc(CN2C(C(C)C)C(=O)N(Cc3cn(Cc4ccco4)nn3)CCS2(=O)=O)cc1 (stereo not given) | ? | nt | nt | nt | nt | 2 | -3 | -13
CCc1nc2c(OCc3cccc(Cl)c3)cccn2c1N(C)C(=O)Nc1ccccc1OC | 22 | nt | nt | nt | nt | -7 | -6 | -17
COc1cccc(N2CCN(c3ccc4nnc(CCC(=O)Nc5cccc(C(C)=O)c5)n4n3)CC2)c1 | -4 | -9 | -1 | -14 | i | 2 | 1 | -6
Cc1ccc(/C=C2/C(=O)c3ccc(C(=O)O)cc3C2=O)o1 | 1 | 90 | 72 | nt | i | 7 | 15 | nt | eIF4H inh retest=9;PABP FP inh retest=17
COc1ccc(CN2CC(=O)N(c3ccccc3C)C2=S)cc1OC | 0 | -3 | 11 | -2 | i | 0 | 0 | nt
C/C(=N\NC(=O)C(O)c1ccccc1)c1ccc(Cl)cc1 (stereo not given) | 1 | -8 | 1 | 0 | i | 0 | 0 | -16
CCOC(=O)c1cnn(-c2ncnc3c2cnn3C)c1N | -20 | -8 | -8 | -10 | i | -1 | -5 | -9
CC(=O)Nc1ccc(S(=O)(=O)NCC2CCC(C(=O)NCCCN(C)Cc3ccccc3)CC2)cc1 (stereo not given) | -18 | -6 | -10 | -2 | i | -1 | 4 | -14
CCC(C)c1ccc(NC(=O)Nc2cccnc2)cc1 (stereo not given) | -159 | 7 | 13 | -6 | i | -3 | -3 | -19
O=C(CCCCn1c(=O)[nH]c2ccccc2c1=O)NCc1ccc2c(c1)OCO2 | -45 | -8 | -7 | -4 | i | 3 | -2 | -4
CCN1C(=O)CSC1=Nc1ccc(OC)cc1 | -14 | -8 | 5 | -6 | i | 2 | 4 | -14
Cc1ccc(S(=O)(=O)Nc2nc3ccccc3nc2NCc2ccco2)cc1C | nt | 24 | 14 | -1 | i | -16 | -15 | -19
COc1cc(NC(=S)NCCCO)c(OC)cc1Cl | 3 | 0 | -2 | 8 | i | 3 | 5 | nt
CN(C)S(=O)(=O)c1ccc(Cl)c(NC(=O)COC(=O)CCC(=O)c2cccs2)c1 | -17 | -15 | 18 | -5 | i | 2 | 2 | -3
Cc1c(C(=O)N/N=C/C(C)C)[nH]c2c([N+](=O)[O-])cccc12 | -22 | 2 | -15 | nt | i | 4 | 12 | nt

Additional records follow:
SMILES | Env fusion inh | eIF4H inh | PABP FP inh | CSC inhib | Rce1 inh | MT1-MMP act inh | MT1-MMP act inh RFP | Yeast UUG start | others
CCCNC(=O)N1CCN(S(=O)(=O)c2ccc(C)c(C)c2)CC1 | -6 | nt | nt | 0 | i | -1 | -2 | 8
CC(CC(=O)O)CC(=O)NNC(=O)c1cccc(Br)c1 (stereo not given) | -6 | 6 | ? | -5 | i | -2 | 0 | 4
COC(=O)c1c(NC(=O)COC(=O)c2ccccc2O)sc2c1CCCCC2 | 7 | -2 | 1 | 8 | i | 2 | -2 | nt
Fc1ccc(CNC(=S)NC2CCCCC2)cc1 | 5 | -6 | -4 | -14 | i | 3 | -2 | -25
O=C(CONS(=O)(=O)c1ccc(Cl)cc1)NCCNc1ncc(C(F)(F)F)cc1Cl | 38 | -9 | -7 | 38 | i | -1 | -2 | nt
O=C(COC(=O)c1cc2ccccc2cc1O)c1ccccc1 | -12 | -4 | -2 | 5 | i | 1 | -3 | -9
N#Cc1ccccc1OCC(=O)Nc1ccccc1C(=O)NC1CC1 | -14 | nt | nt | -7 | nt | -4 | 1 | -5
O=C(Nc1ccccc1)c1ccc(CSc2ccccn2)cc1 | nt | 6 | 7 | 25 | i | -9 | -8 | nt
CCN(CC(=O)Nc1ccc2c(c1)OCCO2)C(=O)/C=C/c1cccc(OC)c1OC | -60 | nt | nt | 29 | i | 2 | -1 | 17
COc1ccc2c(c1)oc(=O)c1ccccc12 | nt | 17 | 10 | -1 | i | 5 | 9 | -7
CN(CCCC(=O)NCc1ccc2c(c1)OCO2)S(=O)(=O)c1ccc([N+](=O)[O-])cc1 | 2 | 0 | -3 | 1 | i | 1 | -5 | -16
CCOC(=O)/C=C/c1ccc2c(c1)S(=O)(=O)N(c1cccc(OC)c1)[C@H]2CC(=O)OCC | -13 | nt | nt | -14 | i | 5 | 2 | -22
COc1ccc(-c2nc(CS(=O)CC(=O)NCc3ccc(C)cc3)c(C)o2)cc1OC (stereo not given) | nt | -4 | 8 | -12 | i | -9 | -2 | -13
Cn1c(NC(=O)c2ccccc2F)c(-c2cccs2)c(=O)c2ccccc21 | -7 | 6 | 8 | -1 | i | nt | nt | nt
Cc1ccc(S(=O)(=O)Nc2nc(C)c(C(=O)NN)s2)cc1 | -8 | 1 | 1 | -1 | i | -1 | 5 | -18
O=C(COc1ccc(-c2ccccc2)cc1)N1CCN(S(=O)(=O)Cc2ccccc2)CC1 | -12 | 5 | -14 | 52 | nt | 9 | -10 | 5
CCOC(=O)c1csc(NC(=O)CN2CCN(C)CC2)n1 | -11 | 1 | -4 | -6 | i | -1 | 2 | -6
CC1CC(C)CN(C/C=C/c2ccccc2[N+](=O)[O-])C1 (stereo not given) | -39 | 14 | -4 | -10 | i | nt | nt | nt

Screening results: PubChem, several laboratories
